Source: PubChem BioAssay
AID504770: growth inhibitors of E. coli YBA685 in a screen for V. cholerae RctB (chromosome II replication) inhibitors; z-score (test concentration not listed); E. coli YBA685 rctB-dependent plasmid, OD600 growth, 3 h; hits give low values; AID 504770; 130,000 tested, 0.27% active;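 active = z-score under -2 on both plates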;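 note: wells of about 30 µL received 100 nL stock; score is relative to mean and SD of the test wells; the first replicate is given; strong numbers were not always called active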
Ba CapD inh: blocks the Bacillus anthracis CapD enzyme; purified CapD enzyme, fluorescence intensity read-out; hits give low values; some hits fall short of the stated cut; z-score (concentration not given with the values); 140,000 tested, 0.23% active;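 active = z-score under -4 in either of two replicates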;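 note: stock transfer was 100 nL into about 40 µL; score is relative to mean and spread of the plate; one replicate is shown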
Active calls of the source: *; . = not tested or not shown; & = joins results of further samples. Only part of the results is shown (hit frequency here may not be typical).

compound	AID504770	Ba CapD inh
O=C(Cn1cnc2c(cnn2-c2ccccc2)c1=O)c1ccccc1	-0.05	.
CN(C)CCN1CCNCC1	1.05	.
CCCCn1c(C2CCCO2)nc2ccccc21 (stereo not drawn)	0.45	0.16
CCOC(=O)C1=C(C)N=c2s/c(=C\c3ccc(O)c(Br)c3)c(=O)n2C1c1ccccc1 (stereo not drawn)	.	-0.16
CN(CC(=O)O)Cc1nc2ccccc2[nH]1	-0.45	.
CCCCn1c(CCC(=O)O)ccc1-c1cccs1	-0.55	23
Cc1cccc(C(=O)Cc2ccccc2O)c1	0.65	1.31
COC(=O)Nc1c(-c2ccccc2)nc2ccc(C)cn12	-1	.
C=Cc1c(C)c2cc3[nH]c(cc4nc(cc5nc(cc1[nH]2)C(C)=C5CCC(=O)O)C(CCC(=O)O)=C4C)c(C)c3C=C	0.45	-0.105
COc1cccc(-c2nnc(SCN3C(=O)c4ccccc4C3=O)n2Cc2ccco2)c1	0.2	.
O=[N+]([O-])c1csc(C2Nc3ccccc3N2)c1	.	-3.29
Cc1ccc(/C=C/C(=O)O)cc1S(=O)(=O)N1CCCCC1	2.5	-1.04
O=C(O)C1(S(=O)(=O)c2ccc(Cl)cc2)CCCC1	-0.45	0.465
Cn1cnnc1Sc1ccc(Cl)cc1NS(=O)(=O)c1ccc2c(c1)OCCO2	0.25	.
CN(CCc1ccccn1)C(=O)c1nn2c(C(F)(F)F)cc(-c3ccco3)nc2c1Cl	-0.35	.
CCN1C(=O)N(CC)C2NC(=O)NC21 (stereo not drawn)	0.8	-0.205
O=C(CN1C(=O)c2ccc(Br)cc2C1=O)OC1CCCCC1	0.5	.
CCOCCn1c(=NC(=O)C(C)C)sc2cc(C)ccc21	-1.05	.
Cn1c(C2CC2)nc2ccccc21	0.5	-0.635
Cc1cc(C)cc(-n2ccn3c(CCC(=O)O)nnc3c2=O)c1	-0.05	0.29
COC(=O)c1ccccc1NC(=O)COC(=O)c1cc2ccccc2o1	1.25	-0.165
CCNC(=O)c1cccc2c1-c1ccccc1C2=O	1.9	-0.76
NC(=O)COC(=O)c1ccc(Cl)c(N)c1	0.5	14
O=C1NCCN1CCNS(=O)(=O)c1ccc2c(c1)CCO2	0.7	0.03
CCOC(=O)c1c(SC)n(-c2ccccc2)c(=S)n(-c2ccccc2)c1=O	0.2	0.26
NC(=O)C1CCN(c2nc(Cc3ccccc3)nc3sc4c(c23)CCCC4)CC1	.	-0.575
CC(=O)Nc1ccc(S(=O)(=O)NCCNc2ccc(C(F)(F)F)cc2[N+](=O)[O-])cc1	.	-0.695
O=C1CC(C(=O)N2CCN(c3ccccc3)CC2)CN1Cc1ccco1 (stereo not drawn)	-0.45	.
Cc1ccc(-n2c(SCc3cc(=O)n4ccccc4n3)nc3n[nH]c(C)c3c2=N)cc1Cl	-0.2	15.2
CCCCCCC(=O)Nc1cccc(C(=O)N/N=C/c2cc(Br)cc([N+](=O)[O-])c2O)c1	.	-1.02
CCOC(=O)N1CCC(NC(=O)c2cc(S(=O)(=O)N(CC)CC)ccc2F)CC1	-0.2	1.17
Cc1cc(OC(=O)c2ccc(Br)cc2)no1	1.85	-0.065
COc1ccc(NC(=O)c2cccn(Cc3ccccc3Cl)c2=O)cc1	.	-0.08
O=S(=O)(c1ccc(Cl)cc1)N1CCN(c2cccc(Cl)n2)CC1	.	-0.005
O=C(CSC1CCCCC1)N1CCc2ccccc21	-0.55	0.445
COc1ccc(Cn2nc(C)c(N)c2C)cc1OC	-0.8	.
O=C1/C(=C/c2ccc(O)cc2)SC(=S)N1CC1CCCO1 (stereo not drawn)	-0.7	72.1
COC(=O)c1cc(NC(=O)CSc2ncnc3sc4c(c23)CCC4)cc(C(=O)OC)c1	.	-0.285
O=C(CCCN1C(=O)C2C3C=CC(C3)C2C1=O)N1CCN(c2ccccc2)CC1 (stereo not drawn)	-0.15	0.98
Fc1ccccc1-c1nnc(-c2ccccc2OC(F)(F)F)o1	-0.35	-0.27
O=S(=O)(NCc1nc2ccccc2[nH]1)c1ccc(Cl)cc1	-0.65	-0.09
O=S(=O)(c1ccc(-c2ccno2)s1)N1CCN(c2ccncc2)CC1	-0.2	-0.485
Cc1ccc(S(=O)(=O)Nc2ccc(NC(=O)c3sc4cc(C)ccc4c3Cl)cc2)cc1	.	-1.05
Cc1sc2c(c1C)C(O)=C(C(=O)Nc1ccc(OC(F)(F)F)cc1)S(=O)(=O)N2C	.	-0.06
COc1ccc(-c2c(C(F)(F)F)[nH]n3c(=O)cc(C(C)(C)C)nc23)cc1	-0.05	24.1

Arranged by length of the SMILES (lowest first): three of the compounds above.
compound	AID504770	Ba CapD inh
COc1ccc(Cn2nc(C)c(N)c2C)cc1OC	-0.8	.
Fc1ccccc1-c1nnc(-c2ccccc2OC(F)(F)F)o1	-0.35	-0.27
O=S(=O)(c1ccc(-c2ccno2)s1)N1CCN(c2ccncc2)CC1	-0.2	-0.485

Remaining list, next part:
compound	AID504770	Ba CapD inh
O=C(NCC(=O)N1CCN(S(=O)(=O)/C=C/c2ccccc2)CC1)c1ccc(Br)o1	-3.3	.
CCOC(=O)NN=C1CN(S(=O)(=O)c2ccc(C)cc2)C1	-0.8	0.15
CCCOc1ccc(NC(=O)C2CC(=O)N(CC)C(=Nc3ccc4c(c3)OCO4)S2)cc1 (stereo not drawn)	.	0.26
Cc1cc(F)ccc1NS(=O)(=O)c1cc(Br)cnc1N	-0.2	0.145
CCc1ccccc1NC(=O)c1cc(C2CC2)on1	-1.2	-0.36
CC(C)(C)OC(=O)N1CCCN(C(=O)c2cccnc2Oc2ccc(Cl)cc2)CC1	0	0.875
CCC(C)Nc1nc(SCC(=O)OC)nc(N(C)C)n1 (stereo not drawn)	-1.2	-0.165
Cc1nc(N)nc(Sc2ccc(Cl)cc2)c1Cl	1.7	-0.41
CNC(=O)/C(C#N)=C1\SC(CCO)C(=O)N1c1ccccc1 (stereo not drawn)	-0.2	.
Cn1c2ccccc2c2cnn(CC(=O)O)c(=O)c21	-0.65	-0.125
CC(=O)Nc1cc2c(C)cc(=O)oc2c2c(Nc3ccccc3)coc12	.	-0.06
O=C(c1cc(N2CCOCC2)nc2ccccc12)N1CCN(c2cccc(Cl)c2)CC1	.	4.04
CCN(C(=O)C(C)Sc1ccc(S(=O)(=O)N2CCOCC2)cn1)c1ccccc1 (stereo not drawn)	-0.75	.
NCCc1ccccc1F	-0.1	.
Cc1nnc(SCc2nc(-c3ccccc3)oc2CSc2nnc(C)c(=O)[nH]2)[nH]c1=O	.	5.62
O=C(Nc1ccccc1)c1cnc[nH]1	-0.65&-0.55	-0.15
O=S(=O)(c1ccc(F)c(F)c1)N1CCCC(O)C1 (stereo not drawn)	.	0.38
Cc1ccc(N2C(=O)NC(=O)/C(=C\c3ccc(OCC(=O)O)c(Br)c3)C2=O)cc1	.	-0.775
CC(C)C(NC(=O)C1CCCCC1)C(=O)Nc1ccncc1 (stereo not drawn)	-0.65	0.065
Cc1n[nH]c(=O)c2ccccc12	-0.15&-1.55	.
NNc1nnc(-c2ccccc2)c(-c2ccccc2)n1	3	-1.2
CC(=O)NC(N1CCCC1=O)(C(F)(F)F)C(F)(F)F	-0.4	0.89
S=C(c1cccc(Oc2ccccc2)c1)N1CCOCC1	-1.8	-0.095
O=S(=O)(Nc1ccccn1)c1ccc(C(F)(F)F)cc1Cl	2.45	-0.165
O=c1[nH]c2cc(Cl)c(Cl)cc2c(O)c1-c1ccccc1	-0.45	0.44
CC1CCN(C(=O)C(C)Sc2nnc(Nc3ccccc3F)s2)CC1 (stereo not drawn)	-0.35	.
O=C(NCCc1ccccc1)c1cnc2ccccn2c1=O	-0.3	65.9
CC(C)(C)C1CCc2oc3c(cc(NS(=O)(=O)c4ccc(F)cc4)c4ccccc43)c2C1 (stereo not drawn)	.	-0.385
O=C(Nc1ccc2c(c1)OCCO2)Oc1ccccc1	-0.6	.
Cc1cccc(NC(=O)c2coc3ccccc3c2=O)n1	0.25	2.25

Compounds from the list above containing a tert-butyl group (three):
compound	AID504770	Ba CapD inh
COc1ccc(-c2c(C(F)(F)F)[nH]n3c(=O)cc(C(C)(C)C)nc23)cc1	-0.05	24.1
CC(C)(C)OC(=O)N1CCCN(C(=O)c2cccnc2Oc2ccc(Cl)cc2)CC1	0	0.875
CC(C)(C)C1CCc2oc3c(cc(NS(=O)(=O)c4ccc(F)cc4)c4ccccc43)c2C1 (stereo not drawn)	.	-0.385

Following part:
mol,AID504770,Ba CapD inh
O=C(Nc1ccc(F)cc1)n1ncc2cc(Cl)ccc21,1.1,-0.335
Cc1occc1-c1nnc(SCC(=O)Nc2ccc3c(c2)OCO3)n1CC(C)C,-0.55,.
O=C(Nc1cccc(Br)c1)c1cc(-c2ccco2)nc2ccccc12,.,2
CCOC(=O)c1c(C=O)oc2c(C)cc(OC(=O)c3cccc([N+](=O)[O-])c3)c(Br)c12,.,0.26
CCc1nnc(NC(=O)C(C)c2c(C)n[nH]c2C)s1 (stereo not drawn),0.45,0.275
CCOc1cc(C(=O)OCc2nnc(-c3ccccc3)o2)ccc1OCC(=O)N1CCCCC1,-1.35,.
O=C(NCCCN1CCOCC1)Nc1ccc(Cl)cc1,0.4,0.295
Clc1cccc(Sc2ccc(Cc3ccc(Cl)cc3Cl)nn2)c1,.,-0.55
NC(=O)Cn1c(COC(=O)Cc2coc3ccc4ccccc4c23)nc2ccccc2c1=O,0.15,.
COc1ccc(C2=NN(C(=O)CSc3nnc(CNC(=O)c4cccc(F)c4)n3C)C(c3ccc(C)cc3)C2)cc1 (stereo not drawn),.,0.585
CCN(C(=S)NC(=O)c1ccco1)c1cccc2ccccc12,-0.6,.
COc1ccc(OC)c(Nc2cc(C)nc3nc(C)nn23)c1,-0.55,-1.25
N#CC1=C(SCc2ccccc2)NC2=C(C(=O)CCC2)C1c1ccc(Cl)cc1 (stereo not drawn),0.3,15.6
O=C(Oc1cc(=O)oc2c1c(=O)n1c3c(cccc23)CCC1)c1ccccc1,2.45,0.025
O=C(c1ccc(S(=O)(=O)NCc2ccco2)cc1)N1CCc2ccccc21,-0.2,.
COc1ccc(/C=C2/SC(N)=NC2=O)cc1OCc1ccc(Cl)cc1Cl,.,0.95
O=C(O)CN1C(=O)/C(=C\c2ccccc2)SC1=S,0.2,.
CSc1nc2ncc(C(=O)O)c(N)n2n1,.,-0.18
O=C(O)C1CCN(S(=O)(=O)c2ccc3ccccc3c2)CC1,2.7,.
CCOC(=O)C1=C(C)NC(C)=C(C(=O)OCC)C1C(=O)OCc1cc(=O)n2cc(C)ccc2n1,1.1,.
O=C(/C=C/C=C/c1ccccc1)CC1(O)C(=O)Nc2ccc(Br)cc21 (stereo not drawn),-0.65,0.005
COc1ccc(/C=C2\SC(=O)N(CCC(=O)N3CCCCC3)C2=O)cc1OC,.,0.415
CCCNC(=O)NS(=O)(=O)c1ccc(Cl)cc1,0.2,-0.11&1.87
COc1ccc2[nH]cc(CCNC(=O)OCc3ccc(F)cc3Cl)c2c1,.,-1.18
CCOC(=O)c1ccc(Nc2nnc(-c3cc4cc([N+](=O)[O-])ccc4oc3=O)s2)cc1,.,-0.45
CCN1CCc2c(sc3[nH]c(=S)n(-c4cccc(OC)c4)c(=O)c23)C1,0.35,.
N#Cc1c(N)nc2sc3c(O)cc(=O)[nH]c3c2c1-c1ccc(Cl)cc1,-0.25,-0.235
CCOC(=O)C1=C(C)OC(N)=C(C#N)C1c1ccc(-c2ccccc2)cc1 (stereo not drawn),.,20.1
O=S(=O)(N1CCCCC1)N1CCN(c2ccc(F)cc2)CC1,-0.65,.
O=C(Nc1ccc(S(=O)(=O)N2CCCCC2c2cccnc2)cc1)c1ccccc1 (stereo not drawn),.,-0.025
NS(=O)(=O)c1ccc(CCNC(=O)c2cc(-c3ccccc3)nc3ccccc23)cc1,.,3.23
CCOC(=O)CSc1nc2sc(C(=O)OCC)c(C)c2c(=O)n1Cc1ccco1,.,8.38
O=S(=O)(c1cccc(C(F)(F)F)c1)N1CC=C(c2ccccc2)CC1,2.2,0.28
Cc1occc1C(=O)CC#N,0.55,.
CC1(C)CC2CC(C)(CN2CC(=O)Nc2ccc3c(c2)OCCO3)C1 (stereo not drawn),0.3,.
Cc1onc(-c2c(Cl)cccc2Cl)c1C(=O)ONC(=O)c1ccccc1,.,-0.015
CCOC(=O)[C@H](CCc1ccccc1)N[C@H]1CCc2ccccc2N(CC(=O)O)C1=O,-0.2,.
C=CCn1c(C)nnc1SCC(=O)N1CCN(S(=O)(=O)c2ccc3ccccc3c2)CC1,-0.4,.
CC1=CC(C)(C)N(CC(=O)c2ccccc2)c2ccc(C)cc21,0.15,.
Nc1ccc2nc(CCc3nc4ccc(N)cc4s3)sc2c1,0.8,1.33
Brc1ccc(-c2noc(-c3ccc(Br)cc3)n2)cc1,-2.15,0.1
COc1ccc(NC(=O)CCc2c(C)nc3cc(-c4ccc(Cl)cc4)nn3c2C)c(OC)c1,0.65,-0.365
O=S(=O)(Nc1ccc(Cl)cc1)c1ccc2oc(=S)[nH]c2c1,0.75,.
O=C(CCN1C(=O)/C(=C\c2ccco2)SC1=S)N1CCCC1,-0.5,.
CN1C(=O)C2C3c4ccccc4C(c4ccccc43)C2C1=O (stereo not drawn),-0.05,.
CCc1ccc(NC2OC(=O)c3ccccc32)cc1 (stereo not drawn),-0.8,0.09
COC(=O)c1ccccc1S(=O)(=O)NC(Cc1ccccc1)C(=O)OC (stereo not drawn),-0.25,.
CC1(C)CC(=O)C=C(NNS(=O)(=O)c2ccccc2)C1,-0.4,-1.33
